# Source: PubChem BioAssay (National Center for Advancing Translational Sciences (NCATS))
# NS1 function inh – inhibitors of influenza NS1 protein function; S. cerevisiae slowed by influenza A NS1, growth recovery by OD600; Potency, µM (highest dose often 46.1 µM), for inactives: at the highest dose activity, positive = more growth; 0.4% of 270,000 active; AID 2326; active means well fitted rising curve with a large enough effect; inconclusive means small, poorly fitted or top-dose-only effect; inactive means no such curve, though single readings can be large or run the other way; further: nearly all actives have a fitted effect of over 50% in size
#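 Recovery from NS1-induced slow growth read by OD600 in budding yeast switched to galactose assay medium (pH 6.0, -URA) at 1:100 dilution. Compound 23 nl per well; the matching strain lacking NS1 serves as control.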
# SARS PLpro yeast – blocks SARS-CoV papain-like protease in a yeast assay; S. cerevisiae expressing SARS-CoV PLpro, growth rescue; control for the full effect not named in the record; Potency, µM (doses to about 32.9 µM), for inactives: at the top dose activity, positive = growth rescue; 0.19% of 330,000 active; AID 485353; active means well fitted rising curve with a large enough effect; inconclusive means small, poorly fitted or top-dose-only effect; inactive means no such curve, though single readings can be large or run the other way; further: 0% is about no effect; nearly all actives have a fitted effect of over 55% in size; growth read by luminescence after 48 h
# MARV entry inh – blocks Marburg virus binding to or entry into cells; 1.8% of 300,000 active; Marburg virus pseudotyped entry inhibition, cell reporter; control for the full effect not named in the record; about a third of the inactives were read at about 46 µM; Potency, µM (top dose mostly 37.8 µM), inactives show at the highest dose activity change, negative = inhibition, most hits filed as inhibitors; AID 540276; active = well fitted inhibition curve with a large enough effect; inconclusive = small, poorly fitted or top-dose-only effect, or effect the other way; inactive = flat fitted curve, though single readings scatter; tested in HEK293 cells; about a fifth of its hits are not listed in these tables; further: on the % scale 0 is the no-effect control and ±100 the full control effect; luciferase read-out
# Cruzain Triton – blocks cruzain activity in presence of Triton detergent | purified cruzain, Z-FR-AMC fluorescence, 0.01% Triton | P25779 | 0.43% of 200,000 active | AID 1478 | Potency, µM, without a hit: max response, negative = inhibition, most hits filed as inhibitors;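 further: plate controls were neutral wells for no effect and buffer without enzyme for full effect; nearly all actives have a fitted effect of over 40% in size; top concentration of the series not given in the record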
# Target sequence (P25779 123-467 limits assumed): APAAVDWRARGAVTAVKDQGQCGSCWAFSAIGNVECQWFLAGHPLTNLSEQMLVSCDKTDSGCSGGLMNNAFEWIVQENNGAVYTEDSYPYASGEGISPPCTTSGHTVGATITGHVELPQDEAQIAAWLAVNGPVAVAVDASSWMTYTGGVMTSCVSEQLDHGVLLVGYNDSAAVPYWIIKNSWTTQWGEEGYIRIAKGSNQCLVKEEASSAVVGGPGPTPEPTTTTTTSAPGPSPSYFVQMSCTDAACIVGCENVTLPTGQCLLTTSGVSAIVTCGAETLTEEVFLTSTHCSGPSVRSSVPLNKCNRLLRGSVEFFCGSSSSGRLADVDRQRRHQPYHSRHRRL
#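 Z-FR-AMC hydrolysis (2 uM substrate) by cruzain (1.5 nM) monitored kinetically at ex 360/em 450 nm after 15 min room-temperature compound exposure; 0.01% Triton X-100, pH 5.5, 5 mM DTT.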
# 2A StopGo – lowers the luciferase signal of an FMDV 2A StopGo reporter; Potency, µM (series often up to 57.9 µM), without a hit: at the highest dose signal change, negative = less light; 1.2% of 410,000 active; human cells with a luciferase reporter of 2A StopGo recoding; control for the full effect not named in the record; AID 1159524; active = well fitted falling curve with a large enough effect; inconclusive = small, poorly fitted or top-dose-only effect; inactive = no such curve, though single readings can be large or run the other way; tested in HEK293T cells; further: on the % scale 0 is the no-effect control and ±100 the full control effect; nearly all actives have a fitted effect of over 45% in size; luciferase light after 4 h
# Cruzain inh noDet – cruzain (T. cruzi) inhibition without detergent; purified cruzain, Z-FR-AMC fluorescence, no detergent; Potency, µM, for the others: max response, negative = inhibition, most hits filed as inhibitors; 2.3% of 200,000 active; AID 1476;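 further: plate controls were enzyme without inhibitor for no effect and buffer without enzyme for full effect; nearly all actives have a fitted effect of over 40% in size; top concentration of the series not given in the record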
#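 Purified cruzain at 1.5 nM, pre-incubated 15 min with compound at room temperature in 100 mM sodium acetate pH 5.5, 5 mM DTT, 0.00005% Triton X-100. Reaction started with 2 uM Z-FR-AMC; AMC fluorescence increase over 60 s gives rate.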
# RE007 growth inh – less growth of the S. pombe RE007 Vpr strain. Potency, µM (titrated, usually from 92.2 µM), inactives show at the top dose activity change, negative = less growth. 0.21% of 360,000 active. S. pombe RE007 Vpr strain, BacTiter-Glo ATP luminescence, 24 h; control for the full effect not named in the record; active = well fitted falling curve with a large enough effect; inconclusive = small, poorly fitted or top-dose-only effect; inactive = no such curve, though single readings can be large or run the other way;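 further: on the % scale 0 is the no-effect control and ±100 the full control effect; nearly all actives have a fitted effect of over 50% in size; the assay follows cell death caused by Vpr and the record does not say whether a fall means rescue or toxicity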
#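 Fission yeast RE007 carrying one integrated HIV-1 vpr copy, seeded at OD 0.01 in PMG+AL medium with 23 nL pinned compound. Grown 24 h at 30 degrees; viability read by BacTiter-Glo luminescence after 5 min.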
# Lassa entry inh – inhibitors of Lassa virus binding or cell entry. 1.2% of 300,000 active. Potency, µM (highest dose often 37.9 µM), inactives show at the highest dose activity change, negative = inhibition, usual class: inhibitors. Lassa virus pseudotype entry inhibition, cell reporter; control for the full effect not named in the record. AID 540256; active means well fitted inhibition curve with a large enough effect; inconclusive means small, poorly fitted or top-dose-only effect, or effect the other way; inactive means flat fitted curve, though single readings scatter; tested in HEK293 cells; further: on the % scale 0 is the no-effect control and ±100 the full control effect; nearly all actives have a fitted effect of over 50% in size; luciferase read-out
# Active calls of the source: *; ? = inconclusive; / = not tested or not shown; & = joins results of further samples; [ ] = dose if it differs, or a comment. Unless noted, the call rests on the fitted dose curve; in most records, active means well fitted curve in the direction sought with a large enough effect; inconclusive means small, poorly fitted or top-dose-only effect, or another doubt; inactive means no such curve, though single readings can be large; an effect the other way counts as inactive or inconclusive. Potency means the concentration at half of the fitted maximal effect.
SMILES,NS1 function inh,SARS PLpro yeast,MARV entry inh,Cruzain Triton,2A StopGo,Cruzain inh noDet,RE007 growth inh,Lassa entry inh
Cn1c(-c2ccc3c(c2)OCO3)cnc1N,-20%,6%,2%,-3.0%,34%[activator],-27%,-8%,16%
COc1ccc(C2CC(=O)c3c([nH]c(C(=O)OC4CCCCCC4)c3C)C2)cc1OC (stereo not given),/,/,-6%[46.1 µM],-4.3%,-6%,-6%,/,21%[46.1 µM]
O=C(CC1=NCCNC(c2ccccc2)C1)c1ccccc1O (stereo not given),?,5%,?,-8.2%,-2%,-8%,-5%,3%
CC(C)OC(=O)c1ccc(NCc2cc(O)ccc2O)cc1,/,/,2µM*,/,6.3µM*,/,0%,13µM*
Cc1nc2ccc(C(=O)O)cc2c2c1CC(C)S2 (stereo not given),?,1%,20%,-8.2%,-12%,-4%,-6%,-7%
Cc1cccc(-n2c(CC3C(=O)Nc4ccc(C)cc43)nc3ccccc3c2=O)c1 (stereo not given),/,/,-21%[46.1 µM],-7.8%,?,-3%,/,2%[46.1 µM]
CNC(=S)NCCc1ccc(OC)c(OC)c1,0%,0%,17%,1.4%,6%,4%,13%,9%
CC(C)OCCCNC(=O)c1ccc(N(C)S(C)(=O)=O)cc1,3%,0%,16%,-0.4%,-3%,4%,5%,9%
Cc1nc2c(c(C)nn2-c2ccccc2)c(C)c1CCC(=O)NCCCOC(C)C,-2%,-1%,?,/,-22%,/,13%,-13%[46.1 µM]
CCOC(=O)C1(c2csc(N)n2)COC(=O)C1 (stereo not given),17%,/,0%,8.0%,15%,7%,1%,?
COc1ccc(-c2nnn(CC(=O)N(CC(=O)NC3CCCC3)c3ccccc3)n2)cc1OC,-5%,-1%,14%[46.1 µM],/,-18%,/,29%,9%
Cc1scc(-c2n[nH]c(=S)n2C(C)c2ccccc2)c1C (stereo not given),-32%,?,?,-3.9%,-25%,-1%,/,-1%
Cc1nnc(SCC(=O)Nc2ccccc2F)n1Cc1ccco1,3%,5%,/,/,-10%,/,13%,/
COc1ccc2oc(=O)c(C(=O)C[n+]3cccc(C)c3)cc2c1,12%,0%,-11%[46.1 µM],/,1%,/,-18%,1%[46.1 µM]
COC(=O)Nc1ccc(S(=O)(=O)N2CCCc3ccccc32)cc1,-23%,-2%,?,-4.9%,-8%,-28%,3%,-43%
Cc1ccccc1C(=O)NN1C(=O)CSC1=S,12%,-2%,5%,-4.7%,-15%,17%,-10%,8%
O=C(Nc1ccccc1)OCC1CCCN2CCCCC12 (stereo not given),-5%,-2%,18%,0.1%,14%,-2%,2%,14%
C/C(=N\Nc1ccc(Cl)c(C(=O)O)c1)c1cccc([N+](=O)[O-])c1,0%,-2%,/,/,44%[activator],/,4%,/
O=C(Nc1ccc2ncccc2c1)c1cccc(Br)c1,-61%,-20%,/,/,43%[activator],/,-17%,/
O=C1C(Cc2ccc3[nH]ccc3c2)NC(=S)N1c1ccccc1 (stereo not given),-2%,-1%,16%[14.2 µM],/,0%,/,2%,-11%
Cc1nn(CC(=O)NC(=O)NC2CCCCC2C)c(=O)c(C#N)c1C (stereo not given),/,-2%,22%,/,-21%,/,1%,8%
CN(C)S(=O)(=O)c1ccc(C(=O)OCC(=O)c2ccc3c(c2)NC(=O)CO3)cc1,0%,1%,20%&20%[46.1 µM],/,7%,/,-5%,19%
COc1ccccc1N(CC(=O)Nc1ccc(Cc2ccncc2)cc1)S(=O)(=O)c1ccccc1,-20%,1%,?,/,-25%,/,-10%,-25%
CCN(CC)S(=O)(=O)c1ccc2c(c1)N(CC(=O)Nc1cccc(C#N)c1)C(=O)CO2,/,/,5%[46.1 µM],-1.1%,-10%,4%,/,3%[46.1 µM]
CN1CCN(CCOC2c3ccccc3CSc3ccc(Cl)cc32)CC1 (stereo not given),-16%,18%,?,-4.0%,-22%,?,6%,21µM*
COc1cc(/C=N/NC(=O)c2cc3ccccc3cc2O)ccc1OCCN1CCCCC1,11µM*,13%,?,-18%,11%,-12%,-16%,12%
CCOC(=O)c1sc(=S)n(-c2ccc(C)cc2)c1SC,15%,12%,0%,-1.8%,/,-7%,-5%,-3%
COc1ccccc1NC(=O)CN1CCN(S(=O)(=O)c2ccc(Br)cc2)CC1,-5%,-4%,12%,-1.2%,-23%,23%,3%,6%
CN(CC(=O)Nc1cccc(F)c1)C(=O)c1ccc(N2CCOCC2)c([N+](=O)[O-])c1,12%,5%,/,/,-19%,/,6%,/
Cc1ccccc1OCCCn1c(CCNC(=O)C2CCCCC2)nc2ccccc21,/,/,?,3.2µM*,-28%,3%,/,-28%[46.1 µM]
O=c1c(N2CCc3ccccc3C2)csc2ccccc12,/,/,/,-1.2%,15%,4%,/,30%[46.1 µM]
O=C(CCC1CCCCC1=O)c1ccccc1 (stereo not given),5%,2%,-5%,0.9%,51%[activator],-3%,-1%,-2%
CCOc1ccc(NC(=O)c2cc3c(=O)n(Cc4cccs4)ccc3nc2C)cc1,/,/,/,-4.4%,-18%,?,/,-15%[46.1 µM]
COC(=O)CCN(c1ccccc1)S(=O)(=O)c1ccc(OC)cc1,-8%,-11%,2%,3.4%,-21%,-5%,7%,-1%
CCOc1ccc(CNC(=O)c2cc3ccccn3n2)cc1OC,/,/,/,0.5%,10%,-15%,/,13%[46.1 µM]
O=C(COC(=O)/C=C/c1ccc(OC(F)F)cc1)Nc1cccc(S(=O)(=O)N2CCCC2)c1,/,4%,29%,/,-4%,/,-16%,-3%
O=C(c1cc(-c2ccc(O)cc2)on1)N1CCCCCC1,-6%,-5%,-24%[46.1 µM],/,50%[activator],/,7%,?
CCOC(=O)N1CCN(S(=O)(=O)c2ccc(F)c(C(=O)Nc3cccc(Cl)c3C)c2)CC1,-15%,10%,-12%&-19%,-2.1%,0%,9%,-14%,-26%&-4%
O=C(O)c1nccnc1C(=O)Nc1ccccc1N1CCOCC1,0%,2%,-17%[46.1 µM],/,9%,/,-16%,22%
O=C(CN1C(=O)c2cccc3cccc(c23)C1=O)NCCCO,-1%,1%,/,/,-24%,/,2%,/
COc1ccc2sc(NC(=O)CC(C)C)nc2c1,-12%,1%,-1%,-0.1%,76%[activator],6%,?,10%
CCSc1nnc(C)n1-c1ccc(C(=O)O)cc1,1%,3%,-9%,4.3%,-12%,-2%,4%,19%
CCc1ccc(-n2c(=O)c3c4c(sc3n(Cc3ccc(F)cc3)c2=O)CCCC4)cc1,/,/,18%[46.1 µM],-1.0%,-14%,5%,/,17%[46.1 µM]
O=C(CN1CCCCC1)NC1CCc2cc3c(cc21)CCC3 (stereo not given),/,/,9%,/,-11%,/,0%,2%
CS(=O)(=O)N(CC(=O)NCc1ccc2c(c1)OCO2)Cc1ccc(Cl)cc1,-40%,-3%,?,3.5%,?,-8%,-4%,0%
CCCCNC(=O)c1cc([N+](=O)[O-])[nH]n1,18%,7%,3%,-1.5%,-9%,7%,4%,-18%
CC(Oc1ccccc1)C(=O)N1CCN=C1SCc1ccccc1 (stereo not given),/,-1%,-3%,/,-19%,/,-16%,-16%
O=C(NC1CCCCC1)C(=S)N1CCOCC1,5%,-1%,?,/,-8%,/,3%,4%[46.1 µM]
C/C=C(/C)C(=O)O[C@@H]1[C@H](OC(=O)C=C(C)C)c2c(ccc3ccc(=O)oc23)OC1(C)C,-28%,10%,-14%,-7.5%,-18%,3%,4%,-3%
CC1CCCCC1N1CN=C(Nc2nc3ccccc3s2)NC1 (stereo not given),11%,2%,-2%,-11%,-4%,6%,-14%,-8%
O=C(CSc1nccc(-c2cccs2)n1)Nc1ccc(Cl)cc1,2%,0%,/,/,-6%,/,7%,/
Cn1nc(C(C)(C)C)c([N+](=O)[O-])c1C(=O)N1CCOCC1,-10%,0%,/,/,-15%,/,35%,/
OCc1nc2ccccc2n1CCCCOc1ccccc1,/,/,?,/,4%,/,-9%,-26%[46.1 µM]
O=C(COc1ccccc1F)Nc1ccc(-c2nc3ccccc3s2)cc1,/,-1%,0%[46.1 µM],1.6%,32%[activator],?,/,24%[46.1 µM]
Cc1ccc(C)c(NC(=O)COc2cccc3c2CCN(Cc2ccccc2C)C3=O)c1,6%,9%,?,-5.7%,-29%,-17%,-19%,?
Cc1ccc(S(=O)(=O)N(C)C)cc1NC(=O)COC(=O)CCC1CCCC1,/,8%,24%,/,-11%,/,13%,0%
COc1ccccc1NC(=O)C1=C(C)Nc2nc(SCC(=O)c3ccc(C)cc3)nn2C1c1ccccc1C (stereo not given),/,/,/,1.4%,-16%,4%,/,23%[46.1 µM]
Cc1cc(NC(=O)C2CC(=O)N(c3cccc(Cl)c3)C2)no1 (stereo not given),13%,-1%,?,/,-9%,/,3%,-3%[46.1 µM]
CC(=O)N1CCCc2cc(S(=O)(=O)Nc3ccc(Cl)cc3F)ccc21,/,/,/,-1.2%,0%,?,/,?
COc1ccc(CNC(=O)CSc2nnc(C(F)(F)F)n2C)cc1,/,-5%,9%[46.1 µM],/,4%,/,39%,-2%

# Next records:
SMILES,NS1 function inh,SARS PLpro yeast,MARV entry inh,Cruzain Triton,2A StopGo,Cruzain inh noDet,RE007 growth inh,Lassa entry inh
S=C1CCSc2ccc(Cl)cc2N1,3%,8%,?,1.1%,-3%,-6%,-11%,-4%
COc1ccc(N(C)S(=O)(=O)c2cccc(C(=O)NC3CCCCCC3)c2)cc1,/,-1%,?,/,?,/,3%,?
CCc1ccccc1NS(=O)(=O)c1ccc(SC)cc1,-22%,-2%,-7%,-3.9%,-2%,-3%,-8%,1%
CCn1c(N)c(C(=O)NCCCOC)sc1=S,-43%,2%,14%,-0.9%,-24%,-2%,0%,6%
C=CCn1c(C)cc(C(=O)CSc2ccc(NC(C)=O)cc2)c1C,-13%,0%,-8%,0.5%,26%,6%,1%,-24%
CCCc1[nH]nc2c1C1(C(=O)N(CC)c3ccccc31)C(C#N)=C(N)O2 (stereo not given),5%,1%,1%,-0.4%,-5%,9%,4%,4%
Cc1c(O)cc2n(c1=O)-c1ccc(Cl)cc1C2(C)C,6%,8%,0%,-2.8%,-15%,12%,1%,22%
